Source: PubChem BioAssay (several laboratories)
PABP polyA inh: blocks human PABP binding to poly(A) RNA; P11940; fluorescence polarization; inhibition, % at 35 µM; actives 1% (n = 290,000); AID 2014;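 active means 50% or more with normal probe brightness, or confirmed in later tests; inconclusive means above 50% with abnormal brightness, or retests that disagree; inactive means below 50% or failed in later tests; about a fifth of its hits are not listed in these tables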;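 further: calls also rest on retests at 20 µM and on dose response follow-up; controls were probe without protein and protein plus probe with vehicle; some compounds called inactive have numbers as strong as hits; many hits fall short of the cut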
Target sequence (P11940 whole entry, looked up): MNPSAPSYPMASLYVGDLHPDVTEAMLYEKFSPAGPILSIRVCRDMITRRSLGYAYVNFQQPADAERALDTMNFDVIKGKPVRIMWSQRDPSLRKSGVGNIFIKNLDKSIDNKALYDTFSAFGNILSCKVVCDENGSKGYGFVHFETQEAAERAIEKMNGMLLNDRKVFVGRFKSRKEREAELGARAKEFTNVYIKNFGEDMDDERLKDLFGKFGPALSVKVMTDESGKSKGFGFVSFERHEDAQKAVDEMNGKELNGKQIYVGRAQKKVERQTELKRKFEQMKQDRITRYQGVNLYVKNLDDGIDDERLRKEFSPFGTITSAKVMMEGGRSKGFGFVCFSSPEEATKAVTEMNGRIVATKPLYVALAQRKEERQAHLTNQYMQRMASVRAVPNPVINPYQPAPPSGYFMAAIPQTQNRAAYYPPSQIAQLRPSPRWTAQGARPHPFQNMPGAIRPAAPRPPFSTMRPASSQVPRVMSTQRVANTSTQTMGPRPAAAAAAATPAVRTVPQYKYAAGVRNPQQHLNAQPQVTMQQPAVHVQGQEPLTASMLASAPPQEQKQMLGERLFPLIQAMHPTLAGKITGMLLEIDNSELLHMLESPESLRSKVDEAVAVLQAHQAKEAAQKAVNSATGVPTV
CSC inhib: blocks cancer stem cells | cancer stem cell-like cells viability, luminescence | inhibition, % at 7.5 µM | actives 1.1% (n = 300,000) | AID 2717;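 active means mean at 75% or more and at least half the replicates too; inconclusive means mean and replicates disagree; tested in HMLE shEcad cells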;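 further: 0% = median of negative and 100% = median of positive control wells; the first replicate is given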
Env fusion inh: inhibitors of HIV Env-mediated cell fusion. HeLa-JRFL Env/CEM21 cell fusion, luciferase. inhibition, % at 12.3 µM. actives 1.1% (n = 360,000). AID 651610;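 active means mean replicate inhibition score of at least 50 and every replicate individually at or above 50; inconclusive means only one of the two criteria met; inactive means mean below 50 and not all replicates reaching 50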;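 further: 0% = plate neutral controls and 100% = maraviroc near 300 nM; one replicate is shown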
MT1-MMP act inh: MT1-MMP (human) activation inhibition; actives 0.061% (n = 360,000); HT1080 RFP-PRO-GFP cells, GFP/RFP ratio fluorescence, overnight; percent of plate control window, DMSO zero; P50281; GFP/RFP ratio change, % at 20 µM;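 active means GFP/RFP ratio change of at least 30% with cell ATP level not reduced by more than half and red fluorescence within 50% of control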; further: strong numbers were not always called active
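Test system: HT1080 RFP-PRO-GFP cells; Benchmarks: DMSO and RFP-L50D-GFP cell wells; Timing: cells overnight before dosing, compound overnight, 37 °C, 5% CO2; Compound: one 20 µM compound dose with 1% DMSO; Read-out: GFP/RFP fluorescence ratio.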
eIF4H FP inh: inhibitors of RNA binding by human eIF4H; eIF4H fluorescence polarization binding assay; inhibition, % at 35 µM; actives 0.94% (n = 290,000);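 active means 50% or more with normal probe brightness, or confirmed in later tests; inconclusive means above 50% with abnormal brightness, or retests that disagree; inactive means below 50% or failed in later tests; about a fifth of its hits are not listed in these tables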;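 further: calls also rest on retests at 20 µM and on dose response follow-up; 0% = protein and probe with vehicle and 100% = probe without protein; strong numbers were not always called active; many hits fall short of the cut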
UUG fidelity: yeast start codon fidelity modulation; actives 0.13% (n = 350,000); AID 602363; activity score, % at 18.7 µM; S. cerevisiae UUG-firefly luciferase reporter, luminescence/redox ratio;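 active means replicate mean at a twofold rise or more, about +100% in these data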;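 further: firefly luciferase made from a UUG start codon reports start codon fidelity; reporter light over untreated wells divided by growth signal over untreated wells; some hits fall short of that in this replicate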
Rce1 inh: blocks yeast Ras-converting enzyme. yeast membranes, quenched prenylated peptide cleavage fluorescence. calls only. actives 0.27% (n = 290,000). AID 2563;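 active means fall in fluorescence gain of 50% or more versus controls, with final raw signal at or below 3038400; inconclusive means same 50% fall but final raw signal above 3038400; inactive means fall in fluorescence gain under 50%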;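 further: plate controls were neutral control wells for no effect and wells lacking membranes for full effect; tested at 10 µM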
Target sequence (Q03530 whole entry, looked up): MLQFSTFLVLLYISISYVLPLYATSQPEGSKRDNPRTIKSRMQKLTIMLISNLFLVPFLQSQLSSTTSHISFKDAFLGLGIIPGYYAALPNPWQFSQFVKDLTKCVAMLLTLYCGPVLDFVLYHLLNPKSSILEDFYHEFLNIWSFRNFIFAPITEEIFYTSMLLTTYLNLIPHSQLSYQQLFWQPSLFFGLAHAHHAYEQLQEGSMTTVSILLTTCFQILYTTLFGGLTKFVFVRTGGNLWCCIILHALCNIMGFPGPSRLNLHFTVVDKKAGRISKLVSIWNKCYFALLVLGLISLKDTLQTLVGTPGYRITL
MT1-MMP act inh RFP: second read-out of MT1-MMP act inh, no call of its own (marks repeat the call); RFP signal change, %; measured here: RFP expression control read;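 0 = vehicle wells; hits needed this value within 50% of zero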
Starred values were filed as active, the others as inactive; i = inactive; ? = inconclusive; . = no result given. An excerpt (hit frequency here may not be typical).

SMILES	PABP polyA inh	CSC inhib	Env fusion inh	MT1-MMP act inh	MT1-MMP act inh RFP	eIF4H FP inh	UUG fidelity	Rce1 inh
Cc1ccc(-c2nc(SCC(=O)N(C)c3c(N)n(Cc4ccccc4)c(=O)[nH]c3=O)n[nH]2)cc1	52*	-10	4	-2	3	106*	1	i
CCCCC1=NC2(CCCC2)C(=O)N1Cc1ccc(-c2ccccc2-c2nn[nH]n2)cc1	9	-5	.	.	.	-13	.	i
CCOc1ccc(C(CC(=O)O)NC(=O)c2cccs2)cc1 (centres undefined)	4	-6	-6	6	4	7	-6	i
O=S(=O)(NC1=NCCC1)c1cccc(NS(=O)(=O)c2ccc(F)c(Cl)c2)c1	.	.	-2	-4	0	.	-3	.
COC(=O)c1sc(N2C(=O)c3oc4ccccc4c(=O)c3C2c2cccs2)nc1C (centres undefined)	4	.	.	3	8	1	-22	.
O=C1CC(N2CCN(c3cccc(C(F)(F)F)c3)CC2)C(=O)N1c1ccc(F)cc1 (centres undefined)	14	9	13	10	4	-5	1	i
C#CCOCCOCCOCCNc1nc(N2CCN(C(=O)[C@H](CCCCN)n3cc(C(N)CC(C)C)nn3)CC2)nc(N2CCN(C(=O)[C@H](CCC(=O)O)n3cc(C(N)[C@H](C)CC)nn3)CC2)n1 (some centres undefined)	32	1	.	3	4	41	24	i
COc1ccc(CN(C(=O)c2cc(=O)c3ccccc3o2)C2CCS(=O)(=O)C2)cc1OC (centres undefined)	-2	.	2	1	1	18	-6	i
CC(C)(C)OC(=O)CNC(=O)c1[nH]cnc1C(=O)NCCCCCNC(=O)OC(C)(C)C	-5	-5	14	4	-14	-6	-6	i
O=C(NC1CCOCC1)C1CCC(=O)N(CCc2ccc(Cl)cc2)C1 (centres undefined)	1	2	4	-2	0	-8	-14	i
CC(C)Oc1ccc(CNC(=S)N/N=C/c2ccc([N+](=O)[O-])cc2)cc1	2	-13	.	-3	-6	-7	-19	i
CC1CCN(CC(=O)Nc2ccc(S(=O)(=O)N3CCCCC3)cc2)CC1	7	33	16	0	-2	1	-20	i
COCCNC(=O)CSc1ncnc2sc(-c3ccccc3)cc12	4	-5	9	0	-4	1	.	i
COc1ccc(/C(N)=N/OC(=O)c2cccc([N+](=O)[O-])c2)cc1OC	5	-2	.	-1	2	-8	-14	i
CN(C)c1nc(N)c2nccnc2n1	.	.	-16	2	5	.	-25	.
CN(C)c1c(F)cc(C(=O)NC(=O)NCc2cccnc2)cc1F	3	-3	13	3	-3	0	5	i
CC(C)[C@H](NS(=O)(=O)c1cccc(C(F)(F)F)c1)C(=O)OCC(N)=O	-1	-12	4	0	0	12	-7	i
CCc1ccc(C(=O)OCC(=O)c2c(N)n(CC(C)C)c(=O)n(C)c2=O)cc1	12	9	5	-6	-23	1	.	i
Nc1nc(C(=O)N2CCOCC2)nn1C(=O)c1ccc(Cl)cc1	-10	5	18	-1	4	-9	-19	i
CCOc1ccc2[nH]c(=O)c(CN(CCCO)C(C)=O)cc2c1	-2	-2	.	4	3	-10	-11	i
N#CC(c1ccccc1)(c1ncc(C(F)(F)F)cc1Cl)N1CCOCC1 (centres undefined)	-6	.	-27	-2	2	-1	5	i
O=C(Nc1ccc(F)cc1)C(Sc1nnc2ccccn12)c1ccccc1 (centres undefined)	2	4	.	0	1	6	.	i
CN(CCC#N)c1ccc(/C=C(\C#N)c2ccccn2)cc1	-6	10	?	-3	-3	?	-44	i
CCn1nc(C)c(/C=N/NC(=O)c2ccoc2C)c1C	-3	-10	.	2	4	-5	-9	i
Cc1c(Cl)c(C(=O)NNC(=S)Nc2ccccc2)nn1C	-6	-10	.	4	8	6	-35	i

2 neighbouring compounds out of the list so far, quoted:
SMILES	PABP polyA inh	CSC inhib	Env fusion inh	MT1-MMP act inh	MT1-MMP act inh RFP	eIF4H FP inh	UUG fidelity	Rce1 inh
CCn1nc(C)c(/C=N/NC(=O)c2ccoc2C)c1C	-3	-10	.	2	4	-5	-9	i
Cc1c(Cl)c(C(=O)NNC(=S)Nc2ccccc2)nn1C	-6	-10	.	4	8	6	-35	i

(next part)
SMILES	PABP polyA inh	CSC inhib	Env fusion inh	MT1-MMP act inh	MT1-MMP act inh RFP	eIF4H FP inh	UUG fidelity	Rce1 inh
Cc1nc2ncnn2c(C)c1CCC(=O)NCCCN1CCN(c2cccc(Cl)c2)CC1	2	-11	-25	7	1	0	-12	i
COc1cc(C=NNC(=S)Nc2ccc(S(=O)(=O)N3CCCCC3)cc2)cc(OC)c1OC	.	.	6	5	-8	.	-1	.
Oc1ccc[n+](CC(O)c2ccccc2)c1 (centres undefined)	.	7	-4	-1	1	.	-24	i
Cn1c(SCC(=O)Nc2cccc(NC(=O)c3cccs3)c2)nnc1-c1ccncc1	2	-8	.	-3	-1	-6	-6	i
CNC[C@H](Cc1ccccc1)NC[C@@H](Cc1cccc2ccccc12)NCCc1ccc(C)cc1	-4	108*	7	-9	-9	-16	-3	i
O=C(C1=C(O)C(=O)N(CCCn2ccnc2)C1c1ccccc1)c1ccco1 (centres undefined)	0	4	.	-2	1	5	-22	i
Cc1cc(C(=O)NC2CCCCC2C)c2ccccc2n1 (centres undefined)	-9	-12	-4	-1	1	-6	3	i
Cc1ccc(-c2cn(C[C@H]3CC[C@@H]([C@@H]4CC[C@H](Cn5cc(-c6ccc(C)cc6)nn5)O4)O3)nn2)cc1	12	-1	11	-1	-8	-6	-13	i
N#CC1=C(N)Nc2ncnn2C1c1ccc([N+](=O)[O-])cc1 (centres undefined)	10	12	-6	2	-1	4	.	i
COc1cccc(C2C(C#N)=C(N)OC3=C2C(=O)CCC3)c1OC(=O)c1ccco1 (centres undefined)	5	2	.	-2	1	17	3	i
O=S(=O)(NCc1ccccc1)c1ccc(Cl)cc1	-4	.	-47	-4	3	2	.	i
COc1ccc(NS(=O)(=O)c2c(C)[nH]c(C)c2C(=O)N2CCCCC2)cc1Cl	12	-2	4	2	0	-2	15	i
CCOC(=O)c1c(C)[nH]c(C)c1S(=O)(=O)NC(C)Cc1ccco1 (centres undefined)	1	5	-2	3	3	-3	7	i
C=CCOc1cccc(/C=C2\C(=O)N(Cc3ccc(C)cc3)C(C)=C2C(=O)OC)c1	-6	85*	5	-26	-20	3	.	i
Cc1[nH]c(C(=O)N/N=C/c2ccc(C(=O)O)cc2)c(C)c1C(=O)N/N=C/c1ccc(C(=O)O)cc1	-2	-5	.	4	1	-2	-9	i
COc1ccc(NC(=O)N2CCCC2C(=O)Nc2cccc(C)c2C)cc1 (centres undefined)	1	.	13	1	0	-12	1	i
O=C1Nc2ccccc2CCC1Sc1nnc(-c2ccc(Cl)cc2)s1 (centres undefined)	6	18	?	5	-15	2	-10	i
CC1=C(C(=O)Nc2ccc(Cl)cc2C(=O)N2CCC(C(N)=O)CC2)SCCO1	-8	-15	5	-3	2	-7	3	i
COc1ccc(NS(=O)(=O)c2cc(NC(=O)c3cc(=O)c4ccccc4o3)ccc2OC)cc1	-14	3	26	3	4	-4	.	i
O=C(CCSc1nc2ccccc2o1)Nc1ccccc1	1	6	3	2	-4	-3	.	i
COc1ccc(S(=O)(=O)N2CCCC(C(=O)NCc3ccncc3)C2)cc1Cl (centres undefined)	-2	-7	.	-4	-7	1	-8	i
CCC(=O)Nc1cccc(C2=NOC3(C2)C[C@@H](C(N)=O)N(C(=O)CC)C3)c1 (some centres undefined)	2	.	-12	0	5	-5	-1	i
CCOc1ccccc1NC(=O)CCNS(=O)(=O)c1cccc2nsnc12	-3	-15	6	0	1	3	11	i
O=C(c1cc2cc(Cl)ccc2[nH]1)N1CCN(c2ccccn2)CC1	-4	.	-5	-1	-3	6	-5	i
Cc1noc(C)c1COc1ccc(C(=O)N2CCC(C(N)=O)CC2)cc1	.	1	.	-3	3	.	-14	.

Complete entries, looked up by structure:
Entry for `CC1=C(C(=O)Nc2ccc(Cl)cc2C(=O)N2CCC(C(N)=O)CC2)SCCO1` = PABP polyA inh = -8; CSC inhib = -15; Env fusion inh = 5; MT1-MMP act inh = -3; MT1-MMP act inh RFP = 2; eIF4H FP inh = -7; UUG fidelity = 3; Rce1 inh = i
Entry for `COc1ccc(NS(=O)(=O)c2c(C)[nH]c(C)c2C(=O)N2CCCCC2)cc1Cl` = PABP polyA inh = 12; CSC inhib = -2; Env fusion inh = 4; MT1-MMP act inh = 2; MT1-MMP act inh RFP = 0; eIF4H FP inh = -2; UUG fidelity = 15; Rce1 inh = i

Continued.
SMILES	PABP polyA inh	CSC inhib	Env fusion inh	MT1-MMP act inh	MT1-MMP act inh RFP	eIF4H FP inh	UUG fidelity	Rce1 inh
COc1cc(NC(=O)C2=C(N3CCOCC3)/C(=C\c3ccc(Br)cc3)CC2)cc(OC)c1OC	-16	61	7	-3	-10	-2	26	i
CCOC(=O)CSc1nn(-c2ccccc2)c(=S)s1	-2	11	10	8	6	-3	.	i
CC(O)C(=O)NCCOCCOCCNC(=O)C(C)O (centres undefined)	6	-11	.	-3	0	-7	-12	i
O=C(NCc1cccnc1)c1ccccc1NS(=O)(=O)c1ccc(Br)cc1	.	2	-24	-3	-6	.	11	.
Cc1cc(C)nc(SCC(=O)c2ccc(O)c(O)c2)n1	7	13	-10	8	-3	15	0	i
COc1ccccc1CNc1ncnc2c1cnn2-c1ccccc1	6	8	-2	-2	-3	-3	-13	i
CCOC(=O)N1CCC(=NNC(=O)COc2cccc(C)c2)CC1	6	-5	2	0	5	-2	.	i
O=C1NCCCC1C(=O)Nc1ccccc1C(F)(F)F (centres undefined)	-2	-1	-51	-2	2	1	-16	i
COc1cc(NC(=O)c2ccc(F)cc2)c(OC)cc1Cl	-3	-7	-34	9	3	-4	-16	i
Cc1ccccc1CNC(=O)c1csc([C@H]2C[C@H](O)[C@@H](CO)O2)n1	.	.	?	3	14	.	-13	.
Cc1ccc2nc(SCc3ccc([N+](=O)[O-])cc3)[nH]c2c1	1	-6	31	-3	-5	0	-22	i
O=C(NCc1cccs1)c1ccc(N2CCCCC2)nc1	11	-1	-50	-2	-4	-1	-8	i
C=CCN(C(C)=O)C1CC(=O)N(c2ccc(OCCC)cc2)C1=O (centres undefined)	-3	5	.	1	1	-6	-4	i
O=C(CSc1ccc(Cl)cc1)Nn1cnnc1	1	-8	-41	-1	0	-2	-7	i
CC1=C(C(=O)N2CCOCC2)CC(CC(=O)NCC2CCCCC2)C(=O)N1CCCN1CCCC1=O (centres undefined)	.	.	-7	3	3	.	-11	.

Random excerpt: 2 records from the list.
SMILES	PABP polyA inh	CSC inhib	Env fusion inh	MT1-MMP act inh	MT1-MMP act inh RFP	eIF4H FP inh	UUG fidelity	Rce1 inh
Cc1ccc2nc(SCc3ccc([N+](=O)[O-])cc3)[nH]c2c1	1	-6	31	-3	-5	0	-22	i
CC(O)C(=O)NCCOCCOCCNC(=O)C(C)O (centres undefined)	6	-11	.	-3	0	-7	-12	i
